# High-throughput results deposited in PubChem by National Center for Advancing Translational Sciences (NCATS).
# HSD17B inh: blocks hydroxysteroid 17-beta dehydrogenase activity; Q99714; recombinant HSD17B10, NADH fluorescence kinetic; many of its hits are not listed in these tables; Potency, µM (series often up to 57.1 µM), without a hit: at the highest dose activity change, negative = inhibition, most hits filed as inhibitors; 75,000 tested, 7.6% active; AID 893; active = well fitted inhibition curve with a large enough effect; inconclusive = small, poorly fitted or top-dose-only effect; inactive = no such curve, though single readings can be large or run the other way;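 note: the protocol describes HADH2 (HSD17B10) and not the HSD17B4 of the title; nearly all actives have a fitted effect of over 70% in size; most hits overshoot -100% by far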
#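 Activity followed as NADH fluorescence increase (ex 360, em 450 nm) every 30 seconds for 4 min, using final 90 uM beta-hydroxybutyryl CoA and 1 mM NAD+. Recombinant His-tagged enzyme, 20 nM, pH 9.0 Tris buffer, 15 min compound preincubation.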
# Starred values were filed as active, the others as inactive; ? = inconclusive; & = joins results of further samples; [ ] = remark or other dose. % is set by controls: 0 for no effect and ±100 for the full control effect; potency is the fitted concentration of half-maximal effect. An excerpt, so the mix of outcomes need not match the whole.
SMILES	HSD17B inh
O=C(c1cc2ccccc2o1)N1CCN=C1SCc1cccc(F)c1	1.4%
CC(=O)c1ccccc1Oc1nc(CN2CCOCC2)nc2scc(-c3cccs3)c12	-7.4%
Cc1sc2nc(CN(Cc3cccs3)C(=O)NC3CCCCC3)[nH]c(=O)c2c1C	-9.1%
O=C(O)CNc1ccc(C(=O)O)cc1	-2.9%[11.4 µM]
COCCNC(=O)CN1CCC(NC(=O)Nc2ccccc2)CC1	-5.8%
O=C(CSc1ncn(-c2ccccc2)n1)N1CCN(c2ccccc2)CC1	-6.8%
Cc1ccc(S(=O)(=O)NC(=O)Nc2ncn[nH]2)cc1	16.1%[11.4 µM]
CC(C)CCCC(C)C1CCC2C3CC(O)[C@@]4(O)CC(O)CC[C@@]4(C)C3CC[C@@]12C (stereo partly specified)	-3.8%
CC(C)CC(/C(O)=C(\C#N)c1nc2ccccc2[nH]1)N1C(=O)c2ccccc2C1=O (stereo unspecified)	-3.4%
C/C(Cl)=C/Cn1c(NCCN(C)C)nc2c1c(=O)n(C)c(=O)n2C	2.8%
COc1ccc(CN[C@H](C)C(=O)O)cc1	-2.3%[11.4 µM]
Clc1ccc(-c2nnc(SCc3cn4ccsc4n3)n2CC2CCCO2)cc1 (stereo unspecified)	-2.7%
CC(=O)NC(CC(=O)Nc1ccc(S(=O)(=O)N2CCCC2)cc1)c1ccccc1 (stereo unspecified)	4.7%
Nc1ncnc2nn([C@H]3O[C@@H](CO)[C@@H](O)[C@H]3O)nc12	-5.0%[11.4 µM]
NC(=O)C1CCCN(C(=O)NC2CCCCC2)C1 (stereo unspecified)	8.6%
O=S(=O)(Nc1ccc2c(c1)OCCO2)c1cccc2nsnc12	3.8%
C[Si](C)(C)Cl	0.9%
CCCn1c(=N)n(CC(=O)C(C)(C)C)c2ccccc21	-0.9%
O=C(O)C1C2C=CC(O2)C1C(=O)Nc1ccc2c(c1)OCCO2 (stereo unspecified)	-7.6%
Cc1ccc(C)c(S(=O)(=O)N2CC(=O)Nc3ccccc32)c1	59.2%[activator]
O=C(CN1CCN(c2ccccc2)CC1)Nc1c(C(=O)C2CC2)oc2ccccc12	-0.8%
Cc1c(Nc2ncnc3c2cnn3-c2ccccc2)c(=O)n(-c2ccccc2)n1C	13.5%
CCOc1nc(-c2ccc(OC)cc2)ccc1-c1noc(C)n1	31.6µM*
Nc1nc2ccc(C(=O)NC3CCCCC3)cc2s1	3.1%
O=C(C1CCCN(S(=O)(=O)c2cnc[nH]2)C1)N1CCN(Cc2ccccc2)CC1 (stereo unspecified)	7.3%
CC1Cc2ccccc2N1C(=O)CSc1nc2ccccc2o1 (stereo unspecified)	4.8%
CCOC(=O)N1CCN(C(=O)c2cccn3c(=O)c4sccc4nc23)CC1	31.6µM*
CCOC(=O)Cc1c(C)c2c(C)nn(-c3ccccc3)c2oc1=O	25.1µM*
Cn1c(=O)cc(OCCCC(=O)N2CCN(c3ccccn3)CC2)c2ccccc21	2.3%
CCCn1c(=O)c2c(ncn2C)n(CCC)c1=O	-4.3%
CCOc1ccc(C(C)(C)C)cc1S(=O)(=O)N1CC(C)OC(C)C1 (stereo unspecified)	-23.5%
O=C(COc1ccc(S(=O)(=O)NC2CCCCC2)cc1)NCC1CCCO1 (stereo unspecified)	9.4%
CC(C)OCCCNC(=O)c1ccc(NS(C)(=O)=O)cc1	4.6%
COc1cc(SC)ccc1C(=O)Nc1ccc(S(=O)(=O)N2CCCC2)cc1	?
CCNc1nc(N)c(C(=O)c2ccc(Cl)s2)s1	6.1%
CCN1CCCC1CNC(=O)c1cn(CC)c2ccc(S(=O)(=O)N3CCCCCC3)cc2c1=O (stereo unspecified)	-5.1%
Cc1cc(C)c2c(c1)NC(=O)C2(O)CC(=O)c1cccs1 (stereo unspecified)	-10.3%
COc1ccc(C(=O)NCc2nnc(SCC(=O)N3CCC(C)CC3)o2)cc1OC	7.1%
CCOC(=O)C1C(=O)N(C(=O)c2cncc(Br)c2)CC1c1ccccc1 (stereo unspecified)	-2.5%
C=CCOc1ccc(/C=C/C(C)=N\O)cc1	0.8%
COc1cccc(Nc2ncc3nc(-c4ccccc4)c(=O)n(C4CC4)c3n2)c1	14.6%
Cc1cc(C(=O)Nc2ccccc2C#N)n(-c2ccccc2)n1	8.9%
O=c1c(-c2cc(F)cc(F)c2)nc2cnc(N3CCOCC3)nc2n1Cc1ccc(F)cc1	0.6%
O=S(=O)(O)c1nnc2sc3ccccc3n12	16.8%
Nc1nnc(CSCc2ccccc2)s1	2.2%
CC(C)CN(C(=O)CSc1nnc2c(Cl)cc(C(F)(F)F)cn12)C1CCS(=O)(=O)C1 (stereo unspecified)	?
Cc1cccc(OCCc2nnc(N)s2)c1C	2.4%
Cc1nc(NCCN2CCOCC2)c2oc3ccccc3c2n1	25.1µM*
CN(C)Cc1c(O)ccc2occ(C(O)c3ccccc3)c12 (stereo unspecified)	-7.1%
O=c1c(-c2ccccc2)c(O)c2cccc3c2n1CCC3	-3.9%
CCOc1ccc(OCc2cccc(C(=O)O)c2)cc1	-0.3%
COC(=O)C1=C(C)Nc2ncnn2C1c1ccc(OC(=O)c2ccccc2)cc1 (stereo unspecified)	-24.4%
CCCCCCCCCCCC(=O)O[C@H](CC(=O)O)C[N+](C)(C)C	-5.3%
C=CCC(NCCCO)c1cccc(OC)c1OC (stereo unspecified)	2.1%
Cc1nc2ncnn2c(C)c1CCC(=O)N1CCOCC1	2.3%
CC(C)=NO[C@@H](C)c1cn([C@H](CO)Cc2ccccc2)nn1	3.8%&2.0%[11.4 µM]

# The listing continues.
SMILES	HSD17B inh
COc1ccc(N2C(=O)C3CCCN3C2c2ccc(C)o2)cc1Cl (stereo unspecified)	0.2%
CCCn1nnnc1SCC(=O)c1ccc(NC(C)=O)cc1	-12.3%
O=C(N[C@@H](c1ccccc1)[C@@H]1C[C@H]1C(=O)O)OCc1ccccc1	11.9%
O=C(O)c1ccccc1SCc1ccc2c(c1)OCO2	-10.9%
CN1/C(=C\P(=O)(N(C)C)N(C)C)C(C)(C)c2ccccc21	-5.3%
Cc1ccc(S(=O)(=O)NC2=NCN(C3CCCCC3)CN2)cc1	6.1%
CCOC(=O)c1c(C)cc(O)cc1O	5.4%
CCCn1c(=O)c2ccccc2n2c(SCC(=O)c3ccc(F)cc3)nnc12	-10.0%
CCOC(=O)CC(=O)Nc1ccc(Br)cc1C(=O)O	0.6%
C=CC[C@@H]1C=C[C@@H](O/N=C2/[C@H]3O[C@@H]3[C@@H](O)[C@H]3[C@H]2CCn2c(=O)n(-c4ccccc4)c(=O)n23)[C@@H](CO)O1	-2.8%[11.4 µM]
O=C(O)C1CCCN1C(=O)Oc1ccccc1 (stereo unspecified)	3.9%
O=C(CC1(O)C(=O)N(Cc2ccc3c(c2)OCO3)c2ccccc21)c1ccccc1 (stereo unspecified)	-9.2%
CC(C)(C)C(=O)Nc1c2c(nc3c1CCC3)CCCC2	-1.8%
O=C1CN(S(=O)(=O)c2ccc(F)cc2)CC(=O)N1CCc1ccccc1	16.8%
CCOCCCNS(=O)(=O)c1ccc2c(c1)OCCO2	-0.8%
COc1ccccc1Cc1noc(-c2cc(Cl)ccc2OC)n1	6.5%
CCOC(=O)c1cccc(NC(=O)CN2CCN(c3ccc(OC)cc3)CC2)c1	1.0%
COc1ccc(C2NCCc3cc(OC)c(OC)cc32)cc1OC (stereo unspecified)	6.9%
Cc1noc(C)c1C(=O)N1CCC[C@@]2(CCN(c3ccccc3)C2)C1	0.3%
COc1cc2nc(N3CCNCC3)nc(N)c2cc1OC	4.7%
CCc1ccccc1N(C(=O)Cn1nnc2ccccc21)C(C(=O)NCCOC)c1ccco1 (stereo unspecified)	-0.1%
O=C(O)[C@@H]1[C@@H](C(=O)NCc2ccncc2)[C@@H]2C=C[C@@H]1O2	-1.9%[11.4 µM]
COc1ccc(C(=O)Nc2nncs2)c(OC)c1	-6.6%
Cc1cc(NC(=O)COn2nnc3ccccc32)no1	3.5%
CC1(c2ccc(OC(F)F)cc2)NC(=O)N(CC(=O)Nc2ccc3c(c2)OCO3)C1=O (stereo unspecified)	-1.0%
CCCc1[nH]n(-c2nc3ccccc3s2)c(=O)c1C=NCC1CCCO1 (stereo unspecified)	7.0%
Cc1cc(C(=O)CN2C(=O)CCC2=O)c(C)n1Cc1ccccc1	-3.6%
CCCC1C(c2ccco2)NC(c2ccco2)CC1(C)O (stereo unspecified)	-2.0%
CCOc1cccc(=O)c2c(C)n(Cc3ccco3)c(C)c12	-7.8%
C=CCOc1ccc(/C=N/n2cncn2)cc1OC	15.8µM*
O=C(c1ccc2ccccc2n1)N1CCN(c2ccccc2)CC1	8.6%
COC(=O)C/C=C\[C@@H](C)[C@@H](/C=N\OC[C@@H](O)[C@H]1O[C@H]2OC(C)(C)O[C@H]2[C@@H]1O)OC	3.8%[11.4 µM]

# Compounds listed so far with a thiophene ring, fused or not (5):
SMILES	HSD17B inh
CC(=O)c1ccccc1Oc1nc(CN2CCOCC2)nc2scc(-c3cccs3)c12	-7.4%
Cc1sc2nc(CN(Cc3cccs3)C(=O)NC3CCCCC3)[nH]c(=O)c2c1C	-9.1%
CCOC(=O)N1CCN(C(=O)c2cccn3c(=O)c4sccc4nc23)CC1	31.6µM*
CCNc1nc(N)c(C(=O)c2ccc(Cl)s2)s1	6.1%
Cc1cc(C)c2c(c1)NC(=O)C2(O)CC(=O)c1cccs1 (stereo unspecified)	-10.3%

# The list goes on.
SMILES	HSD17B inh
S=c1nc2ccccc2c2nc(-c3ccccc3)[nH]n12	-23.4%
CC(=O)NCCNc1ncnc2ccc(-c3ccccc3C)cc12	?
O=C1CCCC2=C1C(c1ccc(Br)cc1)c1c([nH]c(=S)[nH]c1=O)N2 (stereo unspecified)	10µM*
Cc1ccc(NCc2nnc(SCc3ccc(C#N)cc3)n2Cc2ccco2)c(C)c1	3.9%
COc1ccc(Oc2ncc3nc(C)c(=O)n(Cc4cccs4)c3n2)cc1	-6.1%
Cc1cc(C)nc(N(C#N)Cc2ccccc2)n1	-3.5%
COCCNC(=O)C(c1ccc(C)o1)N(C(=O)c1snc(C(N)=O)c1N)c1ccc(C)cc1 (stereo unspecified)	31.6µM*
CC(=O)c1sc(NC(=O)C2(F)C(F)(F)C(F)(F)C(F)(F)C(F)(F)C2(F)F)nc1C	-23.8%
CSCCC(NC(=O)c1occc1C)C(=O)O (stereo unspecified)	-6.0%
Cc1ccc2[nH]c(=O)c3cc(C(=O)N4CCN(C(=O)c5ccco5)CC4)sc3c2c1	12.6µM*
COc1nc2cc(C)ccc2cc1-c1noc(-c2cccnc2)n1	5.7%
O=C(CSc1nnc2c(Cl)cc(Cl)cn12)N1CCN(S(=O)(=O)c2ccccc2)CC1	2.0%
Cn1c(-c2ccc(Cl)cc2)cnc1N	-3.3%
Cc1ccc(S(=O)(=O)N2CCC(C(=O)OC(C)C(=O)NCc3ccc4c(c3)OCO4)CC2)cc1 (stereo unspecified)	-3.0%
COc1ccc2ccccc2c1CN1CCN(C)CC1	5.9%
CCCCCCC(=O)O	4.5%
COc1ccc(N2C(=O)C3CCCN3C2c2ccccc2OC)cc1 (stereo unspecified)	8.2%
CC(=O)NC1(c2nnnn2CCOC(=O)Nc2ccc(Cl)cc2)CCCCC1	3.5%
COc1cccc(C2C3=C(N=C4SCC(=O)N42)c2ccccc2CC3)c1OC (stereo unspecified)	-11.4%
Cc1ccc(-n2[nH]c(C)c(/C=N/n3c(C)nc4ccccc4c3=O)c2=O)cc1	8.9%
CN(C)CCCNC(=O)C1CCNCC1	9.6%
CC(C)CNC(=O)C1C2C=CC(C2)C1C(=O)O (stereo unspecified)	8.3%
Cc1ccc(NC(=O)N2CCCC2C(=O)NCCc2ccccc2)cc1 (stereo unspecified)	12.8%
Cc1c(Cl)cccc1NC(=O)CC1SCCNC1=O (stereo unspecified)	-2.5%
COC(=O)c1ccc(C(NC(=O)OCc2ccccc2)/C(C)=C/[C@@H](C)C(=O)NCc2cc(C)on2)cc1 (stereo partly specified)	-4.3%
COC(=O)c1cnn2c(C)c(Cc3cccc(F)c3)c(C)nc12	25.1µM*
COc1ccccc1-c1cc(C(=O)Nc2cccnc2)no1	?
CCCC(=N)C1=C(O)CC(CC(C)SCC)CC1=O (stereo unspecified)	5.3%
CCCn1nc(-c2nnc(-c3ccc(C)c(C)c3)o2)c2ccccc2c1=O	-3.3%
O=c1cc(-c2ccccc2O)oc2c1ccc1ccccc12	-9.0%
COC(=O)CCCCC(=O)C1C(=O)CC(C)(C)C(C(=O)OC)C1=O (stereo unspecified)	-0.6%
CN(C)C(=O)N1CCN(C(=O)c2ccccc2Sc2ccccc2C#N)CC1	12.8%
O=c1/c(=C/c2ccc(CNS(=O)(=O)c3ccccc3)o2)sc2n1CCN=2	?
OCCNc1nc(Nc2ccccc2)nc(Nc2ccccc2)n1	-7.3%
COc1ccc2c(c1)CCC(C)N2S(=O)(=O)c1ccc(C2CNC(=O)C2)cc1 (stereo unspecified)	7.6%
Cc1ccc(NC(=O)CN2CC(C)SC2=NC2CCCCC2)cc1 (stereo unspecified)	-9.5%
CN(C)CCNC(=O)c1c(O)c2c([nH]c1=O)CCCC2	1.0%
COCCOc1nc2c(c(=O)n(C)c(=O)n2C)n1CCc1ccccc1	3.8%
